Screening results (PubChem)
HIV TAR-Tat: TAR RNA-Tat peptide displacers, HIV-1, primary screen, biochemical, FRET, FAM/TAMRA-labeled Tat. HIV-1 TAR RNA, Tat peptide displacement FRET; stronger effect = higher value. z-score (test concentration not listed). hit rate 0.6% among 100,000;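 note: score is relative to mean and SD of negative controls; some compounds called inactive have numbers as strong as hits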
CDC25B CDK2 inh: primary biochemical HTRF screen for blockers of M-phase inducer phosphatase 2 binding to CDK2/cyclin A. P30305+P24941. HTRF CDC25B-CDK2/CyclinA binding, anti-His/anti-Flag; stronger effect = higher value. z-score (test concentration not listed). hit rate 0.72% among 94,000;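 note: score is relative to mean and SD of negative controls; strong numbers were not always called active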
Numbers without * were called inactive; nt = not tested or not shown.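 Rule for the calls: active = z-score from 3 up in half or more of its runs; inactive = the rest.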

Results follow in this order: HIV TAR-Tat | CDC25B CDK2 inh
COCCOC(=O)C1=C(C)NC2=C(C(=O)C(C(=O)OC)C(C)C2)C1c1ccc(-c2ccccc2)cc1 (configuration not stated)
    1.4 | -0.7
CC(C)CCNC(=O)C1CCN(c2cnccn2)CC1
    1.9 | -3.1
O=C(Nc1ccc(F)cc1F)N1CCN(c2nc3ccccc3s2)CC1
    1.8 | -1.2
O=C(NC1CCCC1)c1cnn(-c2ccc(F)cc2)c1-n1cccc1
    0.23 | nt
Cc1c(C(=O)O)nnn1-c1ccccc1Br
    0.4 | -1.9
CC(C)Oc1ccc(-c2nc3ncccn3c2NC2CCCCC2)cc1
    -1.3 | nt
COCCCNc1cc(-n2nc(C)cc2C)ncn1
    -0.17 | nt
CCOc1ccc(C2/C(=C(/O)c3ccc(C)cc3)C(=O)C(=O)N2c2cccnc2)cc1 (configuration not stated)
    -0.47 | 0.11
Cc1nc(-c2ccc(C)c(S(=O)(=O)Nc3ccc(F)c(Cl)c3)c2)cs1
    0.5 | nt
CNC(=O)c1c(NC(=O)c2snnc2C)sc2c1CCCC2
    0.1 | -1.6
Cn1c(=O)c2c(-c3ccccc3)c(Nc3ccccc3)oc2n(C)c1=O
    0.78 | nt
COc1ccc(S(=O)(=O)Nc2cc3c(cc2N2CCCC2)n(C)c(=O)c(=O)n3C)cc1
    -1.8 | nt
O=C(Cn1c(-c2cncs2)nc2ccccc21)NC1CCCC1
    3.8 | -2.1
COc1ccc(C2CC(c3c(O)n(C)c(=O)n(C)c3=O)=Nc3ccccc3S2)cc1 (configuration not stated)
    2.6 | -1.4
NC(=O)C1CCN(CC(=O)Nc2ccccc2N2CCOCC2)CC1
    nt | -1.5
CCOC(=O)C1CCCN(C(=O)c2noc3c2COc2ccccc2-3)C1 (configuration not stated)
    1.1 | -1.8
Cc1oc2ncnc(N3CCOCC3)c2c1C(=O)N1CCN(C2CCCCC2)CC1
    0.01 | nt
O=C(NCC1CCN(Cc2ccccc2F)CC1)NC1COc2ccccc2C1 (configuration not stated)
    0.08 | nt
CC1CCC(NC(=O)CCC2=NS(=O)(=O)c3cc(Br)cnc3N2)CC1 (configuration not stated)
    1.4 | -0.97
Cn1c(=O)oc2cc(S(=O)(=O)N3CCCC(C(=O)NCc4ccco4)C3)ccc21 (configuration not stated)
    0.9 | -0.72
O=C(Cn1cnc([N+](=O)[O-])n1)Nc1ccc(F)cc1F
    0.23 | -1.6
CCCN1CCN(C(=O)CCc2c(C)nc3c(c2C)c(=O)n(C)c(=O)n3C)CC1
    -0.86 | -0.99
CCSc1nc(-c2ccc(Cl)cc2)c(C#N)c(=O)[nH]1
    -1.6 | -0.88
Cc1ccc(/C=C/c2onc(C)c2[N+](=O)[O-])cc1S(=O)(=O)Nc1ccc(Cl)cc1
    -0.46 | nt
O=C(CN1C(=O)S/C(=C\C=C\c2ccccc2)C1=O)Nc1cccc2c1C(=O)c1ccccc1C2=O
    nt | -3.4
CC(C)N(C)C1CCN(C(=O)C2CCN(c3ccc(-c4cccs4)nn3)CC2)CC1
    -0.3 | nt
CCc1cc2c(=O)oc(-c3ccccc3)nc2s1
    0.63 | -0.8
CCCCCCNS(=O)(=O)c1cccc2nsnc12
    -1.4 | -0.24
O=C(NCC1CCCO1)Nc1ccc2nc3n(c(=O)c2c1)CCCC3 (configuration not stated)
    0.03 | nt
CC1CC(=O)Nc2ccccc2N1C(=O)c1cc(Cl)sc1Cl (configuration not stated)
    nt | -1.4
O=C(Cn1cc(S(=O)(=O)N2CCCCC2)c(S(=O)(=O)N2CCCCC2)c1)N1CCCC1
    -3.4 | nt
CCc1nc2nc(C)cc(N3CCN(C4CCCCC4)CC3)n2n1
    0.47 | -0.84
Cc1ccc2nc3c(cc2c1)CCN3C(=O)c1ccccc1
    -1.4 | -1.1
CCCCNc1cc(C)nc2nc(-c3ccc(C)cc3)nn12
    0.75 | -2.1
O=C(NCCO)Nc1ccc2snnc2c1
    1.8 | 11*
CCN1CCN(c2sc(S(C)(=O)=O)nc2S(=O)(=O)c2ccc(C)cc2)CC1
    0.58 | 0.5
CC(C(=O)O)c1cccc(Oc2ccccc2)c1 (configuration not stated)
    0.41 | nt
CCOC(=O)c1noc2nc(C)nc(N3CCC(C)CC3)c12
    -0.24 | nt
O=C(NCc1ccc2c(c1)OCO2)NC1CCCCC1
    nt | -0.88
Cn1nc(-c2ccccc2F)c2cc(C(=O)Nc3cccnc3Cl)sc21
    nt | -0.84
CN(C)c1ccc(C(=O)NNC(=O)/C=C/c2ccc3c(c2)OCO3)cc1
    nt | -1.7
Cc1nnc2c(NCc3ccccn3)nc3ccc(C(=O)c4ccccc4)cc3n12
    0.64 | nt
Cc1ccc(N2C(=O)C3C4C=CC(CO)(O4)C3C2=O)cc1Br (configuration not stated)
    -1 | -1.3
CCc1cc2c3c([nH]c2cc1S(=O)(=O)Nc1cc(Cl)c(OC)cc1OC)CCCC3=O
    -1.2 | nt
CCN1CCCC1CNS(=O)(=O)c1cc2[nH]c3c(c2cc1C)C(=O)CCC3 (configuration not stated)
    1.5 | nt
CNC(=O)Cn1ncc2c3ccccc3n(Cc3c(C)cc(C)cc3C)c2c1=O
    2.1 | -1.9
CC1CCCC(NC(=O)C2(C)Cn3c(cc4occc43)C(=O)N2c2ccc(Cl)cc2)C1C (configuration not stated)
    4.1 | nt
COC(=O)C1SCCN1C(=O)c1ccc(Cl)cc1 (configuration not stated)
    nt | -1.1
O=C(O)CCCNS(=O)(=O)c1ccc([N+](=O)[O-])cc1
    nt | -1.6
CCn1cc(C2N3CC4(C)CN2CC(C)(C3)C4=O)c2ccccc21 (configuration not stated)
    nt | -0.9
O=C(NCCC1=CCCCC1)c1nnc(CS(=O)(=O)c2ccccc2)o1
    -2.2 | nt
CCOc1c(N2CCN(c3ccc(F)cc3)CC2)c(=O)c1=O
    -0.22 | nt
CC(=O)N1c2ccccc2-c2ccccc2S1(=O)=O
    nt | -1.1
CCCCNC(=O)NS(=O)(=O)c1cc(Cl)sc1Cl
    nt | -1.2
Nc1[nH]nc2nc(-c3ccccc3)[nH]c(=O)c12
    nt | -1.5
Cn1c2c(c(=O)n(C)c1=O)C(c1ccc(F)cc1)C1=C(CCCC1=O)N2 (configuration not stated)
    nt | -1.8
COc1ccccc1-c1nnc2sc(COc3cccc(C)c3)nn12
    0.55 | -2.9
Cc1ccc(C)c(N2CCN(c3ncnc4c3nc3n4CCCC3)CC2)c1
    -0.23 | nt
Cn1nnnc1SCCCNCc1ccc(-c2ccccc2)o1
    1.3 | -0.45
Cn1c(=O)[nH]c2nnc(-c3cccnc3)nc2c1=O
    0.12 | -1.7

Record cards, as listed above. Order of values: HIV TAR-Tat	CDC25B CDK2 inh
Record of COc1ccccc1-c1nnc2sc(COc3cccc(C)c3)nn12 : 0.55	-2.9
Record of O=C(Cn1cc(S(=O)(=O)N2CCCCC2)c(S(=O)(=O)N2CCCCC2)c1)N1CCCC1 : -3.4	nt
Record of CCOc1c(N2CCN(c3ccc(F)cc3)CC2)c(=O)c1=O : -0.22	nt

Reformatted comma-delimited: six of the compounds above
SMILES,HIV TAR-Tat,CDC25B CDK2 inh
COC(=O)C1SCCN1C(=O)c1ccc(Cl)cc1 (configuration not stated),nt,-1.1
O=C(O)CCCNS(=O)(=O)c1ccc([N+](=O)[O-])cc1,nt,-1.6
CCn1cc(C2N3CC4(C)CN2CC(C)(C3)C4=O)c2ccccc21 (configuration not stated),nt,-0.9
O=C(NCCC1=CCCCC1)c1nnc(CS(=O)(=O)c2ccccc2)o1,-2.2,nt
CCOc1c(N2CCN(c3ccc(F)cc3)CC2)c(=O)c1=O,-0.22,nt
CC(=O)N1c2ccccc2-c2ccccc2S1(=O)=O,nt,-1.1

(next part)
Results follow in this order: HIV TAR-Tat | CDC25B CDK2 inh
O=C(O)C1CCC(c2ccc(Cl)cc2)CC1 (configuration not stated)
    nt | 0.65
Cc1cccc(C)c1Nc1nc2ccccc2n2cnnc12
    0.93 | 1.3
CCOc1ccc(N2C(=O)C(=O)/C(=C(/O)c3ccccc3)C2(O)C(=O)OC)cc1 (configuration not stated)
    nt | -0.44
CC(C)(C)c1ccc(C(=O)Oc2ccc(-n3cnnn3)cc2)cc1
    -1.4 | -1.3
O=C1CCCC2=C1C(c1cccs1)N(C(=O)Nc1ccccc1)c1ccccc1N2 (configuration not stated)
    -0.09 | nt
CCOC(=O)N1CCN(Cc2nnc(-c3ccc4c(c3)OCO4)o2)CC1
    0.48 | -1.4
COCCOC(=O)C1=C(C)Nc2nc3ccccc3n2C1c1cccc(Cl)c1 (configuration not stated)
    -0.71 | 0.27
CCN1CCN(C(=O)c2c(C)oc3c2cc(OC(C)=O)c2ccccc23)CC1
    -2.3 | 7.7*
O=C1/C(=C/c2cccs2)CS/C1=C/c1cccs1
    nt | -2.3
CN1C(=O)Cc2cc(S(=O)(=O)CCC(=O)N3CCn4c3nc3ccccc34)ccc21
    0.91 | nt
Cc1c(C(=O)N(C)c2ccc(Br)cc2)sc2nc3n(c(=O)c12)CCCCC3
    0.82 | nt
NNC(=O)Cc1csc(-c2cccc(-n3cccc3)c2)n1
    nt | 17*
CCOC(=O)NC(=O)/C(=C/NC(C)C)C(=O)OCC
    nt | 0.04
O=C1C2C3c4ccccc4C(C(=O)O)(c4ccccc43)C2C(=O)N1c1ccc(F)cc1 (configuration not stated)
    0.65 | -1.6
Cc1ccc2c(c1)C(=O)C(=O)N2Cc1ccc(OCCC(C)C)cc1
    1.6 | 0.47
OCC(c1ccccc1)C1CCCCC1 (configuration not stated)
    2.6 | -1
CCc1nn2c(=O)cc(COc3ccccc3Cl)nc2s1
    -0.86 | -0.47
O=C(Nc1ccc(F)cc1)c1ccc([N+](=O)[O-])o1
    2.9 | -1.8
CC(=O)O[C@@H]1CSSC[C@H]1OC(C)=O
    nt | -3.5
O=C(NCCO)c1nnc(Cc2ccc3c(c2)OCO3)o1
    0.51 | 0.51
COc1ccc(C2C(C#N)=C(N)Oc3nc[nH]c(=O)c32)cc1OC (configuration not stated)
    nt | -1.5
Cc1cccc(-c2nc(-c3ccc4c(c3)[nH]c(=O)n4C)no2)c1
    0.89 | nt
Nc1nc(SCC(=O)c2ccc(Cl)cc2)n[nH]1
    nt | 1.3
Cc1cc(-c2ccc(=O)[nH]n2)cc(S(=O)(=O)N2CCc3ccccc3C2)c1C
    -0.67 | nt
CCOC(=O)C(CC)Sc1nnc(-c2c[nH]c3ccccc23)n1CCOC (configuration not stated)
    nt | -1.1
Cc1cc(C)cc(NC(=O)CSc2nnc(C)n3c2cc2oc(C)cc23)c1
    0.13 | nt
CCCN(CCC)S(=O)(=O)c1cc2c(cc1C)NC(=O)CO2
    1.2 | nt
CCCCC(CC)CN1CC(O)=C(c2nc3ccccc3[nH]2)C1=N (configuration not stated)
    0.77 | -2.1
OCC#CCSc1nnc(-c2cccc(Br)c2)o1
    -0.31 | 1.3
Cc1ccccc1-c1nc(SCc2cc(=O)n3nc(CC(C)C)sc3n2)n[nH]1
    -0.25 | nt
Cc1ccc(-n2ccnc(SCC(=O)c3ccccc3)c2=O)cc1C
    0.69 | nt
Cn1c(=O)c2[nH]c(N)nc2n(C)c1=O
    nt | 0.17
Cc1nn(CCCC(=O)N2CCC(N3CCCCC3)CC2)c(=O)c2cc3occc3n12
    -0.69 | 0.09
O=C(NCCNc1nccc(C(F)(F)F)n1)C1CC1
    nt | -0.94
O=C(Nc1nc(-c2cccs2)cs1)c1ccc(S(=O)(=O)N2CCCCC2)cc1
    nt | -32
CCOC(=O)c1sc(NC(=O)CSC2=NCCS2)nc1C
    -7.1 | -0.03
COc1cccc(-c2noc(NCC3CCCO3)n2)c1OC (configuration not stated)
    1.6 | nt
CC1(C)CC(=O)C2=C(C1)OC(N)=C(C#N)C2(C)C
    nt | 1.1
O=C(Nc1ccc2c(c1)OCO2)C1CC(c2cccc(Br)c2)=NO1 (configuration not stated)
    -1.8 | -1.3
CCCCn1c(C)c(C)c2c1ncn1nc(-c3ccc(F)cc3)nc21
    -0.92 | -1.6
CC(=O)Nc1ccc(N2C(=O)CC(Nc3ccc(N4CCOCC4)cc3)C2=O)cc1 (configuration not stated)
    0.2 | -1.6
COc1cccc(C2(C)C(C#N)C(=O)NC(=O)C2C#N)c1 (configuration not stated)
    nt | -0.47
C=CCNC(=S)NNC(=O)c1oc2nc(-c3ccc(Cl)cc3)cc(-c3ccccc3)c2c1N
    nt | -2
COc1ccc(Nc2cc(C)nc3c(C)c(C)ccc23)cc1
    nt | -1.3
CCOC(=O)c1ccc2[nH]c(CSc3nc4sc5c(c4c(=O)n3C)CCCC5)cc(=O)c2c1
    1.9 | nt
Clc1ccc2c(c1)c(-c1ccccc1)nc1nncn12
    0.19 | 1.8
O=C1NC(=S)S/C1=C\c1cc([N+](=O)[O-])ccc1Sc1ccc(C(F)(F)F)cn1
    nt | -1
Cc1noc2ncnc(NCCN3CCCCC3C)c12 (configuration not stated)
    0.62 | nt
Cc1n[nH]c(C)c1C(C)C(=O)Nc1cc(F)ccc1F (configuration not stated)
    0.64 | nt
Cc1cc(C)c(-c2n[nH]c3c2C(c2ccc(F)cc2)N(CC2CCCO2)C3=O)c(O)c1 (configuration not stated)
    1.7 | -0.17
O=C(CSc1nc2ncccc2[nH]1)NCc1nc2ccccc2[nH]1
    1.4 | -0.53
CSc1ncccc1C(=O)c1c(C)[nH]n(-c2ccccc2)c1=O
    nt | -0.21
O=C(NCCc1ccncc1)C(F)(F)F
    nt | -1.6
Cc1nn(C(C)C(=O)NCc2ccccn2)c(=O)c2cc3occc3n12 (configuration not stated)
    1.2 | 0.73
